Bioassay records as filed in PubChem BioAssay.
HPGD inh – qHTS Assay for Inhibitors of HPGD (15-Hydroxyprostaglandin Dehydrogenase); 15-hydroxyprostaglandin dehydrogenase [NAD(+)] (Homo sapiens), P15428; purified HPGD, NADH fluorescence kinetic, PGE2 substrate; Potency, µM, for the others: top-dose activity change, negative = inhibition, actives largely listed as inhibitors; 4.3% of 150,000 active; active = well fitted inhibition curve with a large enough effect (not every such curve was filed as active); inconclusive = small, poorly fitted or top-dose-only effect, or another doubt; inactive = no such curve, though single readings can be large or run the other way;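 also: top concentration of the series not given in the record; plate controls included wells without enzyme; inactives centre near -10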
Target sequence (P15428 whole entry, looked up): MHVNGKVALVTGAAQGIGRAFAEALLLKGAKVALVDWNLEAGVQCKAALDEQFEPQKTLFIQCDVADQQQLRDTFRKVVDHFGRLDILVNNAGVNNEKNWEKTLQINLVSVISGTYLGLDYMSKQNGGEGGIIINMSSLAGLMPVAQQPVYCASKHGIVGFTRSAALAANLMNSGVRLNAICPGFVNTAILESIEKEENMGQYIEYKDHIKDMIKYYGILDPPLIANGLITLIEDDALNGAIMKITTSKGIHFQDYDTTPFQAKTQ
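NADH formation kinetics: reaction with 30 uM PGE2 and 1 mM NAD+ (final), 20 nM enzyme, Tris-HCl pH 8 with Tween 20, after 15 min compound preincubation at room temperature. Fluorescence change, last versus first of five reads.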
An asterisk follows results filed as active; ? = inconclusive; & = joins results of further samples. % is scaled to controls: 0 for no effect and ±100 for the full control effect; potency is read from the fitted curve at half-maximal effect. An excerpt, so the mix of outcomes need not match the whole.

SMILES | HPGD inh
COc1ccc(S(=O)(=O)NCCSC(C)(C)C)c(Cl)c1Cl | ?
CC(C)C(=O)Nc1ccc(NC(=O)c2cc3ccccc3o2)cc1 | -12.8%
O=C(O)/C=C/C(=O)NNC(=O)c1ccc(Br)cc1 | -0.1%
CC/C(=N\NC(=O)c1ccc(N(C)C)cc1)c1ccccc1 | -18.8%
Cn1c(N)c(C(c2ccccc2)c2c(N)n(C)c(=O)n(C)c2=O)c(=O)n(C)c1=O | -0.7%
CC(=O)Nc1ccc(S(=O)(=O)N2CCSC2c2ccccc2)cc1 (stereo not given) | -7.6%
COC1OC2COC(c3ccccc3)OC2C(O)C1O (stereo not given) | -11.1%
CCOC(=O)c1ccc(Nc2cc(C)nc3nc(C)nn23)cc1 | -17.0%
CC(C)Cc1cc(C(=O)NCc2cccnc2)no1 | -22.1%
O=C(CC1COc2ccccc2O1)NC1CCCCC1 (stereo not given) | -23.7%
CCOC(=O)C(=CNc1ccc(C)cc1C)C(=O)OCC | -13.7%
CN1CCN(C(=O)c2cc3ccccc3oc2=O)CC1 | -19.6%
CN(C(=O)COc1ccccc1)c1nnc(-c2ccncc2)s1 | -20.6%
COc1cccc(C(CC(=O)Nc2cccc3ccccc23)NC(=O)c2ccccc2)c1 (stereo not given) | -24.6%
Cc1ccc(-n2ncc3c(=O)[nH]c(SCC(=O)N4CCN(c5ccccc5)CC4)nc32)cc1 | -6.4%
CCCn1c(C)nc2c(Nc3ccccc3)nc(C)nc21 | -4.8%
Cc1ccc(OCC(=O)Nc2ccc3c(c2)OCO3)c([N+](=O)[O-])n1 | -14.2%
CCNC(=S)N/N=C(\C)c1ccc(Cl)s1 | -23.1%
CC1(C)Cc2c(c(-c3ccccc3)nc(N3CCCC3)c2C(N)=O)CO1 | -9.4%
Cc1ccc(NC(=O)Nc2ccc3c(c2)N(C)C(=O)CS3)nc1 | 3.0%
C=CCn1c(CSc2nc3ccccc3s2)nnc1SCC(=O)NCc1ccco1 | 17.8µM*
C/C=C/c1ccc(OCCN2CCc3ccccc3C2)c(OC)c1 | -9.8%
N#CCC(=O)N1CCCCCC1 | 1.6%
COc1ccc(-c2cc(C(=O)NN)n(-c3ccccc3)n2)cc1 | -13.7%
CCn1c(Cn2nnc(-c3ccccc3)n2)nnc1SCC(=O)N1CCOCC1 | -12.1%
CCOC(=O)c1c(NC(=O)CC)sc(C(=O)N2CCCCC2)c1C | 28.2µM*
CSc1ccc(C(=O)/C=C/c2ccc(N)cc2)cc1 | -28.5%
O=C(Nc1ccccc1)c1cnc2ccccc2n1 | -11.8%
CCn1c(CSc2nc3ccccc3s2)nnc1SCC(=O)OC(C)(C)C | ?
Cc1[nH]c(=O)[nH]c1C(=O)CCCCC(=O)O | -6.1%
CC(C)N1CCc2c(sc(NC(=S)NC(=O)c3ccccc3)c2C#N)C1 | ?
COc1cccc(NC(=O)C2CCN(S(C)(=O)=O)CC2)c1 | -4.3%
COc1ccc(/C=C2\SC(=O)N(CCNC(=O)Cc3coc4cc(C)ccc34)C2=O)cc1OC | -20.7%
Cn1c(COc2ccccc2)nnc1SCC(=O)Nc1ccc2c(c1)OCO2 | -11.9%
Cc1nc2ccccc2c(=O)n1N | -18.4%
C=CCn1c(SCC(=O)O)nnc1-c1cccc(Cl)c1 | -6.1%
Cc1cc(NC(=O)Cn2cnc3c(cnn3C(C)(C)C)c2=O)no1 | -1.4%
COC(=O)c1cc(NC2c3ccccc3C(=O)N2c2cccnc2)cc(C(=O)OC)c1 (stereo not given) | -22.4%
Cc1ccc(S(=O)(=O)N(C)c2ccc(OCC(=O)Nc3nc(-c4ccccc4)cs3)cc2)cc1 | -12.6%
CCn1c(COc2ccc(C(C)C)cc2)nnc1SCC(=O)Nc1nccs1 | 3.2%
O=C(O)c1ccc2c3c(ncnc13)-c1ccccc1C2=O | ?
O=c1oc2c(CN3CCOCC3)c(O)c(Cl)cc2c2c1CCC2 | ?
CNCc1ccccc1Sc1ccc(OC)c(OC)c1 | 4.2%
Cc1cc(=O)oc(C)c1C(=O)N[C@@H]1CCCCNC1=O | -8.2%
COc1ccc(CN(C(=O)CSc2nnc(-c3ccccc3C)o2)c2ccc(F)cc2)cc1 | ?
CCOC(=O)C1CCN(C(=O)c2cccnc2)CC1 | -1.2%
Cc1cccc(NC(=O)c2ccccc2Br)n1 | 25.1µM*
O=C(CCCOc1ccc(Cl)cc1Cl)N/N=C/c1cccc([N+](=O)[O-])c1 | -18.4%
COc1cc2c(cc1OC)CN(CC(=O)Nc1ccc3c(c1)OCO3)CC2 | -1.5%
OCCN(Cc1ccccc1)CC1CC2C=CC1C2 (stereo not given) | 7.6%

In another format: results already given.
HPGD inh	molecule
-18.4%	O=C(CCCOc1ccc(Cl)cc1Cl)N/N=C/c1cccc([N+](=O)[O-])c1
-8.2%	Cc1cc(=O)oc(C)c1C(=O)N[C@@H]1CCCCNC1=O

More compounds:
SMILES | HPGD inh
O=S(=O)(Cc1ccccc1Cl)Nc1ccccn1 | ?
Cc1ccc2c(C(=O)CN3CCOCC3)c(C)[nH]c2c1 | -8.2%
CCOC(=O)c1c(NC(=O)C(C)N2CCN(S(=O)(=O)c3cccs3)CC2)sc2c1CCC(C)C2 (stereo not given) | -20.8%
Cc1nnc(SCC(=O)N2CCOCC2)n1C | -8.4%
COc1ccc(Cc2nc(C(=O)Nc3ccc(OC)cc3)cs2)cc1 | -2.6%
CC(Sc1nc(N)cc(=O)[nH]1)C(=O)NC1CCCCC1 (stereo not given) | -13.6%
C=C1N(c2ccc(Cl)cc2)C(=O)OC1(C)C | -29.5%
C#CC[N+](C)(C)CCCCCCCCCCCC | -1.8%
Cc1cc(Br)ccc1NC(=O)CCN1C(=O)c2ccncc2C1=O | -14.4%
CCN(CC)S(=O)(=O)c1ccc2c(c1)nc(SC(C)C(N)=O)n2-c1ccc(OC)cc1 (stereo not given) | -26.0%
Cc1cc(C)cc(C(=O)NCC(=O)OCC(=O)N2CCN(S(=O)(=O)c3ccc4ccccc4c3)CC2)c1 | -10.6%
CCCCCn1c(SCC(=O)OCC)nc2cc(C(=O)N3CCC(C(N)=O)CC3)ccc2c1=O | -10.6%
O=C(NCCC1=CCCCC1)NC1CCCCC1 | -24.7%
Cc1ccc(S(=O)(=O)NC(=O)c2cc(C)n(-c3cc(S(=O)(=O)N4CCOCC4)ccc3N3CCCC3)c2C)cc1 | -14.6%
O=C(CCc1ccccc1)Nc1ccc(NC(=O)c2ccco2)nc1 | -14.3%
O=C(Cc1ccccc1)NCCS(=O)c1ccc(Cl)cc1 (stereo not given) | -2.1%
O=C(/C=C/c1ccccc1)Nn1cnc2ccccc2c1=O | -24.4%
CC(=O)Nc1cccc(C(=O)N/N=C/c2ccc(F)cc2)c1 | -14.9%
Cc1ccc2nc3c(cc2c1)CN(Cc1ccco1)C(=NCC1CCCO1)S3 (stereo not given) | -16.8%
CCC(C)(C)C1CCC(=NNc2nc3ccccc3[nH]2)CC1 (stereo not given) | -5.5%
COc1ccc(CNCCNC(=O)c2nonc2N)cc1OC | -9.8%
CC(C)OC(=O)[C@@H]1CC[C@H](C)[C@@H](CCCC=O)O1 | -9.1%
Oc1ccc(Cl)cc1CNc1ccc(Br)cn1 | 14.1µM*
COC(=O)CCC(=O)NNC(=O)CCCOc1ccc(Cl)cc1Cl | 4.1%
COc1ccccc1NS(=O)(=O)c1cccc(C(=O)NN=C2CCCCCC2)c1 | -16.9%
CC1=C(C(=O)OCC2CCCO2)C(c2cccc(C(F)(F)F)c2)C2=C(CC(c3ccco3)CC2=O)N1 (stereo not given) | ?
Cc1ccc(-c2csc3ncnc(N4CCc5ccccc5C4)c23)cc1 | -10.8%
COc1ccc2c(=O)c3c(=O)n(Cc4ccco4)c(-c4cc(OC)c(OC)c(OC)c4)nc3oc2c1 | -24.1%
O=C(O)c1cccc(S(=O)(=O)Nc2ccc3oc(=O)sc3c2)c1 | -23.4%
O=C(Nc1nc(=S)ss1)c1c(F)cccc1F | ?
CCCCn1c(=O)[nH]c(=O)c2c1ncn2Cc1ccco1 | -3.5%
O=C(NNC(=S)Nc1ccc(Br)cc1)c1ccc(N2CCOCC2)c([N+](=O)[O-])c1 | 35.5µM*
COCCNC(=O)CN1CCN(Cc2cccc(Cl)c2)C1=O | -23.8%
CCOC(=O)C(=O)c1cn(C2OCC(OC(C)=O)C(OC(C)=O)C2OC(C)=O)c2ccccc12 (stereo not given) | -2.1%
CC(C)C(C(=O)O)N1C(=O)/C(=C/c2cccn2C)SC1=S (stereo not given) | -15.8%
CCCCNC(=O)c1onc(CSc2ccccc2C)c1C(=O)O | -16.7%
CCc1ccc(OCC(=O)NCc2ccco2)c(Br)c1 | 35.5µM*
COc1ccc(C(=O)Nc2ccccc2C(=O)NCCCn2ccnc2)cc1 | -9.1%
Cc1ccc(S(=O)(=O)NC(=O)c2ccc(Br)o2)cc1 | -8.7%&-3.2%
COc1ccc2nc(C)cc(SCC(=O)N/N=C/c3cccc4ccccc34)c2c1 | ?
COc1ccc(NC(=O)c2ccc(Cl)c(S(=O)(=O)N3CCc4ccccc4C3)c2)cn1 | -19.0%
Cc1cc(NC(=O)CSc2nnc3c(C)cc4c(C)ccc(C)c4n23)no1 | -18.0%
COC(=O)Cc1cc(=O)[nH]c(Nc2nc3ccccc3o2)n1 | -18.7%
COc1ccccc1NC(=O)c1c(C)oc2c1CCCC2 | -21.7%
CC1(C)CC(=O)N(CC(=O)NCc2ccc(F)cc2)c2ccccc2S1(=O)=O | -6.0%
Cc1ccccc1-n1nnnc1SC(C)C(=O)NC1CCCc2ccccc21 (stereo not given) | -11.8%
O=C(CN1CCN(Cc2ccccc2)CC1)Nc1ccc([N+](=O)[O-])cc1C(=O)Nc1ccccc1F | -10.0%
CCCCNC(=O)c1ccc2c(SCC(=O)O)c3c(nc2c1)CCCC3 | 12.6µM*
Cc1ccc(CNc2cnccn2)cc1 | ?
COc1ccc(C(=O)NC(=O)COC(=O)C2COc3ccccc3O2)cc1 (stereo not given) | -0.6%

Quoted from the listing:
Value of `CC1(C)CC(=O)N(CC(=O)NCc2ccc(F)cc2)c2ccccc2S1(=O)=O` in HPGD inh: -6.0%
Value of `Cc1ccccc1-n1nnnc1SC(C)C(=O)NC1CCCc2ccccc21` (stereo not given) in HPGD inh: -11.8%
Value of `COC(=O)Cc1cc(=O)[nH]c(Nc2nc3ccccc3o2)n1` in HPGD inh: -18.7%

(cont.)
SMILES | HPGD inh
O=S1(=O)CCN(Cc2ccccn2)CC1 | -9.6%
COc1ccc(C)cc1NC(=O)CN1C(=O)c2cccc3cccc1c23 | ?
Cc1cccc(NC(=O)c2sc3nc4c(c(-c5cccs5)c3c2N)CN(C)CC4)c1 | -16.7%
Nn1c(SCc2cccc(Oc3ccccc3)c2)nnc1C(F)(F)F | -5.7%
COc1ccc(CCNC2CC(C)N(C)CC2C)cc1OC (stereo not given) | 1.0%
Cc1ccc(S(=O)(=O)N(C)Cc2ccc(C(=O)N/N=C3\CC(=O)CC(C)(C)C3)cc2)cc1 | -13.3%
C=CCn1c(SC(C)C(=O)NC2(C#N)CCCCC2)nnc1-c1ccc(OC)cc1 (stereo not given) | -6.4%
Cc1nc2c(c(=O)n1CCC1=CCCCC1)c1nc3ccccc3nc1n2/N=C/c1ccco1 | -19.7%
CCc1nc(N)c(C#N)c(-c2ccc(O)c(OC)c2)c1C | -29.6%
Cc1ccc(C(=O)/C=C/c2ccc(-c3ccccc3[N+](=O)[O-])o2)cc1 | -17.1%

Gathered by group, the compounds so far containing a tert-butyl group (three)
SMILES | HPGD inh
COc1ccc(S(=O)(=O)NCCSC(C)(C)C)c(Cl)c1Cl | ?
CCn1c(CSc2nc3ccccc3s2)nnc1SCC(=O)OC(C)(C)C | ?
Cc1cc(NC(=O)Cn2cnc3c(cnn3C(C)(C)C)c2=O)no1 | -1.4%

Five successive entries already listed, for reference:
SMILES | HPGD inh
O=S1(=O)CCN(Cc2ccccn2)CC1 | -9.6%
COc1ccc(C)cc1NC(=O)CN1C(=O)c2cccc3cccc1c23 | ?
Cc1cccc(NC(=O)c2sc3nc4c(c(-c5cccs5)c3c2N)CN(C)CC4)c1 | -16.7%
Nn1c(SCc2cccc(Oc3ccccc3)c2)nnc1C(F)(F)F | -5.7%
COc1ccc(CCNC2CC(C)N(C)CC2C)cc1OC (stereo not given) | 1.0%

The list goes on:
SMILES | HPGD inh
COCCNC(=O)c1ccc2c(=O)n(Cc3ccco3)c(SCC(=O)NC3CCCCC3)nc2c1 | -15.3%
CC(=O)NCCc1ccc(O)c(O)c1 | ?
CCOc1ccc(NCc2nnc(SCc3ccccc3Cl)n2-c2ccccc2)cc1 | -14.8%
CC(NS(=O)(=O)c1ccc(F)cc1)C(c1cccs1)N1CCN(C)CC1 (stereo not given) | -5.1%
Cc1cccc(C(=O)N2CCN(c3ccccn3)CC2)c1 | ?
O=C(CSc1ccc2nnc(-c3ccc(F)cc3)n2n1)NCc1ccco1 | ?
O=C(Cn1ccc2ccccc2c1=O)NCCC(=O)Nc1cccnc1 | -14.2%
CCN1C(=Nc2ccc(Cl)cc2)SC/C1=C\C(=O)OC | -9.4%
CC1CCCN(c2ccc(C(=O)NCC3CCCO3)cn2)C1 (stereo not given) | 11.2µM*
O=S1(=O)NC2CCCCCN2c2ccc(F)cc21 (stereo not given) | ?
COc1ccc(C2OC(=O)CC2C(=O)N2CCN(c3cc(Cl)ccc3C)CC2)cc1OC (stereo not given) | -6.9%
O=C(c1cc(C(F)(F)F)cc(C(F)(F)F)c1)N1CCC2(CCN(Cc3ccncc3)CC2)CC1 | -2.2%
Cc1ccc(NC(=O)c2ccc(-c3nn(C)c(=O)c4ccccc34)cc2)c(C)c1 | 12.6µM*
CC(=O)Cc1nsc(NC(=O)c2cc(-c3cccc(C(F)(F)F)c3)oc2C)n1 | -0.2%
CC(C)(C)OC(=O)NCC12C=CC(O1)C1C(=O)N(Cc3ccccc3)C(=O)C12 (stereo not given) | -10.5%
